T cruzi inh – T. cruzi replication inhibition; T. cruzi beta-gal in NIH3T3, luminescence, 90 h; inhibition, % (no concentration beside the values); actives 1.4% (n = 300,000); AID 1885;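 active means mean inhibition across valid replicates above about 55%, limit read from the data; inconclusive means mean below that limit but half or more replicates reach it; inactive means mean below it, under half of replicates reach it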;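 further: signal also drops with host cell toxicity which is not excluded here; 0% = plate median of DMSO wells and 100% = zero luminescence signal; higher percent means less beta-gal luminescence so fewer parasites; stock transfer was 50 nL into about 50 µL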
Vif TR-FRET – inhibitors of Vif binding to APOBEC3G peptide, primary screen, biochemical, TR-FRET, GST-Vif 1-94, biotin-A3G peptide, dose response retest (AID 1117319) | TR-FRET GST-Vif / biotin-A3G peptide binding; higher % means a stronger effect; test concentration not given here; strong numbers were not always called active | inhibition, %, or IC50 in µM where a hit was titrated | actives 0.57% (n = 260,000);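 active means above the screen mean plus three standard deviations and confirmed in dose response; inconclusive means results disagree or hit not tested in dose response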;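 further: Vif residues 1-94 fused to GST binding biotinylated APOBEC3G peptide 110-148; 0% = full assay without inhibitor and 100% = GST in place of GST-Vif; retest series ran down from 100 µM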
MLL AF4-AF9 inh – MLL-AF4/AF9 protein interaction inhibition; AID 651704; inhibition, % at 10 µM; actives 0.47% (n = 350,000); AlphaScreen, biotin-AF4 peptide binding to FLAG-AF9;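 active means every replicate reaching a set inhibition limit, whatever the replicate mean, cut at about 25% in these data; inconclusive means mean inhibition reaches that limit but some replicates miss it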;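 further: 0% = plate neutral control median and 100% = total signal loss; the record names both 10 and 1 µM as test concentration; the first replicate is given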
Target sequence (P42568 whole entry, looked up): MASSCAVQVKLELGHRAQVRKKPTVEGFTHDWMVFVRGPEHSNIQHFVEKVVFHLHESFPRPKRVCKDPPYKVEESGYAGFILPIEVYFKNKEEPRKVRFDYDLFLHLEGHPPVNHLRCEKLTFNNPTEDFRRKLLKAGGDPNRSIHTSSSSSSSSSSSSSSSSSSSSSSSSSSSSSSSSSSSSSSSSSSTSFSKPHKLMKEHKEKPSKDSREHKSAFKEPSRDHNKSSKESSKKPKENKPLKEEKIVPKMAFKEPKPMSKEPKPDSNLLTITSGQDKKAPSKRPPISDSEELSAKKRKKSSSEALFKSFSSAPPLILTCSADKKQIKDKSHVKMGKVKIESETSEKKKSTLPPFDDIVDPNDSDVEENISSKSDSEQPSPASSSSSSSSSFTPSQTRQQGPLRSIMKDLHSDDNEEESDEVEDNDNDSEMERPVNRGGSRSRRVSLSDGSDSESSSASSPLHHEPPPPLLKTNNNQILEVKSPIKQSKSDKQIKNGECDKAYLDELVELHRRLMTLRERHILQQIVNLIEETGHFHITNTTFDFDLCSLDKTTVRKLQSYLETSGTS
Calb FLC – C. albicans growth modulation with fluconazole. C. albicans CaCi-2 (fluconazole-resistant clinical isolate) + fluconazole, Alamar Blue growth, 48 h. growth inhibition, % (no concentration beside the values). actives 0.57% (n = 300,000);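 active means most replicates above 75%; inconclusive means exactly half above 75%; inactive means most below 75%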;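 further: all wells also contain fluconazole at 8 µg/ml as a sub-toxic cotreatment; 0% = median of DMSO wells and 100% = median of geldanamycin control wells; wells of about 8 µL received 7.5 nL stock; the first replicate is given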
Beta cell apopt – beta cell apoptosis inhibition; INS-1E cytokine-induced death, ATP luminescence, 48 h; percent of positive-control rescue, neutral wells zero; protection from apoptosis, % (no concentration beside the values); actives 0.8% (n = 300,000); AID 435005;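 active means all replicates at 75% or more, or half of them and the mean; inconclusive means half reach 75% but not the mean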;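 further: 0% = cytokine-treated negative control wells and 100% = positive control rescue; higher means more ATP so stronger rescue from cytokine killing; wells of about 40 µL received 100 nL stock; the first replicate is given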
LANA-H2B inh – blocks KSHV LANA binding to histone H2A/H2B | Q9QR71 | cell-free LANA-H2A/H2B peptide, fluorescence polarization | inhibition, % (test concentration not listed) | actives 0.6% (n = 320,000); in the data active means inhibition mostly above about 10%, no sharp cut-off; inactive means mostly below about 6.7%;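 further: stock transfer was 7.5 nL into about 10 µL; 0% = median of vehicle wells and 100% = median of positive control wells; one replicate is shown; the record names a cut of 25% in any replicate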
A1 inh – inhibitors of the anti-apoptotic protein A1, read as caspase activation. MEF A1-2A-BIM cells, Caspase-Glo 3/7 luminescence, 3 h; percent of clofoctol response, vehicle zero. caspase activation, % (test concentration not listed). actives 0.066% (n = 330,000);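 active means over half of replicate activation scores above 10%, or exactly half above 10 with the replicate mean above 10; inconclusive means replicate mean below 10 yet half the replicates above 10; inactive means over half of replicates below 10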;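 further: wells of about 30 µL received 50 nL stock; many hits fall short of the cut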
RanGTP-Imp inh – inhibitors of RanGTP-importin-beta interaction, primary screen, biochemical, FRET, CFP-Ran, YFP-importin-beta, homogeneous. actives 1.1% (n = 300,000). cell-free CFP-Ran/YFP-importin-beta FRET ratio. inhibition, % (concentration not given with the values);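 active means most replicates above 15%; inconclusive means exactly half above 15%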;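 further: 0% = DMSO wells and 100% = Ran loaded with GDP instead of GTP; wells of about 40 µL received 100 nL stock; the first replicate is given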
Starred values were filed as active, the others as inactive; ? = inconclusive; / = no result given; & = joins results of further samples. Rows were taken by chance, and some 4.3% of all compounds hit somewhere here.

structure	Calb FLC	Vif TR-FRET	Beta cell apopt	RanGTP-Imp inh	T cruzi inh	MLL AF4-AF9 inh	LANA-H2B inh	A1 inh
COC(=O)c1cnc(Nc2ccc(Cl)cc2)c([N+](=O)[O-])c1	0	?	2	?	2	/	1.8	0.5
COc1ccc(C(=O)NNc2cc(C)nc(NNC(=O)c3ccc(OC)cc3)n2)cc1	-1	9%	-5	3.2	-3	-1.0	-0.2	-0.3
CCn1c(=S)sc2c(=O)n(CC(=O)Nc3cccc(Br)c3)c(C)nc21	-2	0%	-3	-0.8	7	0.5	-5.0	0.2
O=C(CCc1nnc(CCCc2ccccc2)o1)NCCCC1CCCC1	-18	-6%	-8	-2.9	-1	0.8	7.2	-0.5
O=C(CSc1nnc(Cc2ccccc2)o1)Nc1ccccc1	9	-4%	-2	/	/	-8.4	2.3	-0.1
O=C1C=C(Nc2cccc(O)c2)CC(c2ccco2)C1 (stereo not given)	-3	16%	-8	64*	-4	/	-2.1	0.9
CN1CCN(C(=O)c2cccc(S(=O)(=O)N3CCCC3)c2)CC1	/	-12%	-4	/	/	2.7	6.1	1.5
CCCc1cc(C(=O)Nc2sc3c(c2C(=O)OCC)CCCC3)no1	-3	-4%	-6	0.1	-2	-8.3	-1.7	-0.3
Cc1cc(C)cc(NC(=O)c2sc3nc4n(c(=O)c3c2C)CCC4)c1	-3	/	/	1.0	1	-11	1.9	-0.3
Cc1noc(C)c1S(=O)(=O)N(CC(=O)N1CCn2c1nc1ccccc12)c1ccc(C(C)C)cc1	5	-3%	14	?	0	4.9	3.6	0.4
Cc1ccc2c(c1)N(CC(=O)N1CCCCCC1)C(=O)C(C)O2 (stereo not given)	-6	/	-3	-3.5	8	1.4	1.1	1.1
O=C(NN=C1CCN(Cc2ccccc2)CC1)c1cccc(S(=O)(=O)Nc2ccccc2Cl)c1	13	/	4	2.2	1	/	-7.3	-0.6
COCC1CCCN(C(=O)c2cc(COc3ccc(C(C)=O)cc3)on2)C1 (stereo not given)	15	/	0	6.0	7	-4.6	1.5	0.9
CC(=O)Nc1ccc(S(=O)(=O)NC(C)c2ccncc2)cc1 (stereo not given)	/	/	-2	/	/	4.9	0.0	0.2
CCOC(=O)C1CCN(S(=O)(=O)c2ccc(OC)c(C(=O)N3CCCCCC3)c2)CC1	-10	0%	1	5.1	11	-2.5	-1.9	0.1
N/C(=N\OC(=O)CCCc1ccccc1)c1cccnc1	-7	-7%	-3	-2.7	-6	/	0.3	0.4
CC(C)CN(C(=O)CSc1nnc(C2CC2)n1-c1ccccc1)C1CCS(=O)(=O)C1 (stereo not given)	/	/	-1	/	/	0.0	4.9	1.4
COc1cc(CN2CCCC(C(=O)c3ccc4c5c(cccc35)CC4)C2)cc(OC)c1O (stereo not given)	14	?	3	1.5	-14	23	-5.3	-0.4
Cc1nnc(NC2=NCCC2)s1	3	-4%	-10	-1.9	3	/	6.9	1.1
COc1ccc([C@H]2CC(=O)C=C(c3ccc(OC)c(OC)c3)C2)cc1	/	/	-3	/	/	8.3	0.7	-1.9
COc1ccc(-n2ncc3c2CC(C)(C)CC3NC(=O)CCN2CCCCC2=O)cc1 (stereo not given)	1	/	/	4.4	-10	-1.2	1.0	-0.8
CN(C)S(=O)(=O)c1ccc(N2CCCC2)c(C(=O)N2CCN(S(=O)(=O)c3ccc(F)cc3)CC2)c1	24	7%	6	5.0	10	-0.2	2.4	-0.6
CCc1sc(C(=O)Nc2ccc3c(c2)OCO3)cc1C	/	/	8	/	/	8.4	-1.8	-7.2
COc1ccc(OC)c(NC(=O)CSc2nnc(-c3ccco3)o2)c1	-4	/	-3	-0.6	-17	-0.1	-1.7	-0.5
Cn1c2ccccc2c2cc(C(=O)NNS(=O)(=O)c3ccc(F)cc3)sc21	9	9%	-4	-3.0	7	/	-3.4	0.0
CCC(C)[C@H](N)c1cn([C@@H](Cc2ccc(O)cc2)C(=O)N2CCNCC2)nn1 (stereo not given in full)	12	-1%	-2	4.2	-11	/	-0.9	-0.5
O=C(N/N=C1\CC(c2ccccc2)Oc2ccccc21)c1ccc(O)cc1 (stereo not given)	25	/	-2	1.7	-11	-1.7	0.1	0.7
O=C(CCNC(=O)Cn1ccc2ccccc2c1=O)NCc1ccccn1	0	/	-4	0.3	-2	-17	-3.5	1.2
COc1cc(CC(=O)OCC(=O)c2c[nH]c3ccccc23)cc(OC)c1OC	/	-4%	-6	/	/	3.6	-5.8	0.0
Cn1c(=O)[nH]c(=O)c2c1nc(CN(Cc1ccccc1)Cc1ccccc1)n2CCN1CCOCC1	5	21%&1%	1	8.2	21	/	9.9	-0.6
O=C(CNC(=O)c1ccc2c(c1)OCCO2)N=Nc1c(O)[nH]c2ccccc12	4	-3%	0	0.3	2	-2.6	-2.0	-0.5
CCCCCN(C(=O)CCC(=O)OCC(=O)N(C)Cc1ccc(C)cc1)c1c(N)n(CCCC)c(=O)[nH]c1=O	5	6%	-4	0.1	-6	1.1	0.8	0.0
COC(=O)CN1C(=O)[C@H]2[C@@H](/C=C/c3ccccc3)N3C(=O)CN(CCO)C(=O)[C@@]3(Cc3ccccc3)[C@H]2C1=O	2	/	-3	5.2	-3	-0.3	3.0	0.9
CC(OC(=O)CNC(=O)c1cccs1)C(=O)Nc1ccc(S(N)(=O)=O)cc1 (stereo not given)	17	12%	-9	2.7	4	-1.8	2.4	0.6
CC(=O)c1cccc(N(CC(=O)Nc2ccc(S(=O)(=O)N3CCOCC3)cc2)S(C)(=O)=O)c1	-5	/	2	0.5	2	0.4	-2.7	0.4
O=S(=O)(Cc1ccc(Cl)cc1)c1ncc(CO)n1Cc1ccccc1	-2	-12%	1	-1.8	1	2.0	9.0	1.1
CCn1c(Cn2nnc(-c3ccccc3)n2)nnc1SCC(=O)Nc1ccc(N(C)C)cc1	2	2%&-3%	-4	-1.7	30	/	2.9	0.2
O=S(=O)(Oc1ccccc1C(=S)N1CCOCC1)c1ccc(Cl)cc1	0	-6%	/	-2.9	17	2.7	-2.3	0.3
O=C(CSc1nnc(-c2cccs2)o1)NCc1ccco1	-35	/	-6	3.9	8	-1.7	-3.1	-0.1
Cc1sc2ncnc(OCc3nnc(-c4cccs4)o3)c2c1C	0	/	4	/	/	2.6	-3.6	0.7
Cc1[nH]nc(N2CCCCCC2)c1[N+](=O)[O-]	-1	-2%	2	-4.2	0	/	-6.0	-0.1
O=C(NN1C(=O)c2ccccc2NC1c1ccccn1)c1ccc([N+](=O)[O-])cc1 (stereo not given)	-2	/	3	?	4	-9.0	1.3	-0.4
COc1ccccc1NS(=O)(=O)c1cccc(C(=O)NNC(=O)C(NC(N)=O)C(C)C)c1 (stereo not given)	2	-7%	-4	0.0	-9	-13	3.1	0.0
CCOC(=O)c1c(C)n(-c2ccc(C)cc2)c2c(CC(C)=O)c(Br)c(OC)c(O)c12	0	4%	-1	2.2	-2	/	-1.0	-0.2
O=C(NC(Cc1ccccc1)C(=O)O)OCc1ccccc1 (stereo not given)	-5	8%	-4	-4.2	-4	/	1.1	0.1
Cc1nn(-c2ccccc2)c(Cl)c1CN(C(=O)CCl)c1ccc(Cl)cc1	-3	/	45	6.8	15	-0.2	2.4	6.2*
CCn1c(=O)c2c(nc3n2CCCN3c2cccc(C)c2)n(C)c1=O	-8	1%	-4	-2.2	14	-0.3	1.3	0.8
CC1=C(C(N)=O)C(c2cccs2)n2nc(-c3cccc(Cl)c3)nc2N1 (stereo not given)	18	3%	/	1.6	11	/	-0.8	-0.3
Cc1cc2c3c(c1)C1(C(=O)N3C(C)(C)CC2C)C(C#N)=C(N)Oc2cc(O)ccc21 (stereo not given)	-20	?	-3	-3.4	66*	/	0.4	-0.5
Cc1cccc(CS(=O)(=O)Cc2ccc(C(=O)NCCCN3CCOCC3)o2)c1	-2	?	-11	-2.0	-10	2.4	-1.7	0.0

(listing goes on)
structure	Calb FLC	Vif TR-FRET	Beta cell apopt	RanGTP-Imp inh	T cruzi inh	MLL AF4-AF9 inh	LANA-H2B inh	A1 inh
CCOCc1cc(C)[nH]c(=O)c1C#N	-1	1%	-5	-2.5	-10	-2.7	2.8	0.2
COc1ccc(/C=C2\CCOC2=O)cc1	-13	-5%&1%	-5	4.6	-2	/	-0.8	-0.6
O=C(CCn1c(=O)oc2ccccc21)N1CCN(C(c2ccccc2)c2ccccc2)CC1	-1	11%	4	0.8	24	/	0.8	0.7
CCN(CC)S(=O)(=O)c1ccc2oc(SCc3ccc(F)cc3)nc2c1	1	5%	6	2.1	24	/	4.8	1.1
O=C(CC(=O)Nc1cccc(Cl)c1)N/N=C\c1ccccc1	3	-7%	-5	1.1	3	-6.1	1.4	0.4
Cc1oc(-c2ccccc2F)nc1CS(=O)(=O)CC(=O)NCc1ccco1	5	0%	-3	1.2	1	-6.9	-3.4	-1.3
Cc1cc(OCC(=O)Nc2cccc(S(=O)(=O)N3CCCCC3)c2)ccc1Cl	/	8%	-2	/	/	-0.2	2.4	-0.4
O=C(O)c1ccccc1C(=O)Nc1ccc(Oc2ccc3ccccc3c2)cc1	-1	-18%	-5	0.1	-4	2.4	1.5	-0.3
COc1ccc(NS(=O)(=O)c2ccc(N3CCCC3)c(NC(=S)Nc3cccc(S(=O)(=O)N(C)C)c3)c2)cc1	5	/	6	5.1	8	/	-4.4	0.5
CCCn1c(=NC(=O)CS(=O)(=O)c2ccccc2)sc2cc(S(C)(=O)=O)ccc21	-2	-16%	6	3.4	12	-1.3	-17	-0.2
Cc1cc(C(=O)NCc2ccc3c(c2)OCO3)n(-c2ccccc2)n1	-4	-1%	-5	-2.2	-7	-1.1	6.4	-0.8
O=C(CNS(=O)(=O)c1ccccc1)OCc1cccc([N+](=O)[O-])c1	-10	/	0	1.9	-8	/	-2.3	-0.4
Cc1cc(=O)[nH]c(SCc2cccc3ccccc23)n1	14	/	3	-4.6	-8	-3.8	2.1	0.2
CN(C)CCNC(=O)Cc1ncc(C(F)(F)F)cc1Cl	15	13%	-4	-0.6	30	-1.6	1.0	-0.8
Cc1ccc(OCC(=O)N2N=C(c3cccnc3)CC2(O)C(F)(F)F)cc1C (stereo not given)	0	15%	-4	0.1	10	1.3	0.3	0.8
CCN(CC)c1ccc(/C=N/NC(=O)c2cccc(S(=O)(=O)N3CCOCC3)c2)cc1	-4	-7%	-7	6.0	1	-3.0	1.0	-0.2
COc1cccc(N=C(N)N)c1	-10	/	-15	-1.1	-19	-1.2	1.7	-0.4
CN1CCc2c(sc3c2C(=O)NC(c2ccco2)N3)C1 (stereo not given)	-16	?	2	113*	-18	/	-10	0.8
S=c1[nH]nc(-c2ccc3ccccc3n2)n1-c1cc(Cl)cc(Cl)c1	-7	/	2	1.2	-4	-4.2	-10.0	0.3
O=C(Nc1ccc(F)cc1)C1C(c2ccccc2)C1(Cl)Cl (stereo not given)	-20	/	7	2.1	-5	/	0.9	-0.7
Cc1ccc(-c2n[nH]c(=O)c3ccccc23)cc1S(=O)(=O)NC(C)(C)C	4	?	15	0.5	3	-0.4	2.0	0.2

Screening results deposited in PubChem by several laboratories.
